Tgondii IFNg: T. gondii growth inhibition with IFN-gamma, primary screen, cell-based; activity change, negative = inhibition, %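 (about 20 µM by stock and volumes)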; Toxoplasma gondii growth in IFN-gamma-treated host cells; hits give low values; reference of the scale not given here; actives 3.8% (n = 69,000);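 active means below -70%; inconclusive means fit judged invalid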;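 further: host cells are HeLa cells infected with Toxoplasma gondii; parasite growth read as luciferase light; one replicate is shown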
* = called active by the depositor; ? = inconclusive; & = joins results of further samples. An excerpt; rates above refer to the full screens.

item	Structure	Tgondii IFNg
1	O=C(c1cscn1)N1CCOC2(CCN(CC3CC3)CC2)C1	35
2	CC(C)NC(=O)C1Cn2ccnc2C2(CCN(C(=O)c3cccn3C)CC2)O1 (stereo not drawn)	6
3	COc1cccc(-c2nc(CSc3nc4c(=O)[nH]cnc4n3-c3ccc(C)cc3)c(C)o2)c1OC	79
4	Cc1cnc(N2CCCn3c(CN4CCCC4)nnc3C2)nc1	-29
5	Cc1ccsc1CN(CCN(C)C)C(=O)c1cn[nH]n1	11
6	Cc1onc(-c2ccccc2)c1C(=O)NC1C(=O)N2[C@@H]1SC(C)(C)[C@@H]2C(=O)O (stereo partly drawn)	-3
7	CC(=O)N1CCC2(CC1)OC(=O)C(C)=C2C(=O)NCCCN1CCCC1	100
8	CCc1cc(C(=O)OC)c(NC(=O)CC2SC(=NC)N(C)C2=O)s1 (stereo not drawn)	-4
9	CCNC(=O)C1c2c(ncn2C(C)C)CCN1CC1CC1 (stereo not drawn)	-29
10	Cc1ccc2occ(CN3CC4CCCN4C[C@H]3C)c(=O)c2c1 (stereo partly drawn)	0
11	Cc1ccccc1-c1ccccc1C(=O)NCCC1CN(C)CCO1 (stereo not drawn)	-3
12	CC(C)(O)C#Cc1ccc([C@H]2[C@@H](CO)N3CCCCN(S(C)(=O)=O)C[C@H]23)cc1	8
13	CC(C)CC(=O)N1C[C@@H]2c3nc(Nc4ccccc4)ncc3CS(=O)(=O)[C@H]2C1	5
14	CC(C)(C)c1ccc(/C=C/C(=O)N2CCCCC2)cc1	347
15	O=C(NC[C@@H]1[C@H](c2ccccc2)[C@H](CO)N1C(=O)C1CCC1)NC1CCCC1	-12
16	Cn1cc(C2COC3(CCN(C(=O)c4cccnc4)CC3)C2)cn1 (stereo not drawn)	4
17	CSc1cccc(Nc2nc(-c3nnc(-c4ccc(F)cc4)o3)nc3ccccc23)c1	53
18	COc1cc(-c2n[nH]c(=S)n2C2CCCCC2)cc(OC)c1OC	-25
19	CCCS(=O)(=O)Cc1nnc(-c2ccc(C(C)(C)C)cc2)o1	-17
20	CC(Cc1ccsc1)NC(=O)c1cc(Cn2cnc3ccccc32)[nH]n1 (stereo not drawn)	3
21	Cc1ccc(CC(=O)NC(Cc2cc(=O)[nH]c(C(C)C)n2)c2ccc(F)cc2)cc1 (stereo not drawn)	9
22	COc1cc(C(=O)NCCc2csc(-c3ccccc3)n2)cc(OC)c1OC	369
23	CN(C)C(=O)COCC1CN(c2ncc(F)cn2)Cc2ccnn2C1 (stereo not drawn)	-6
24	CS(=O)(=O)N1CCc2c(nc(C3CCN(C(=O)C4CCCCC4)C3)[nH]c2=O)C1 (stereo not drawn)	25
25	COCCNC(=O)COc1ccc(OCCNC[C@H](O)COc2ccccc2)cc1	7
26	CCOC(=O)c1ccc(NC(=O)Nc2ccc(-c3nc(-c4ccccc4)co3)cc2)cc1	15
27	Cc1csc(NC(=O)c2ccc(S(=O)(=O)NCc3cccnc3)cc2)n1	-37
28	CC(c1cccc(-c2cccc(C(=O)c3nccn3C)c2)c1)N(C)C (stereo not drawn)	4
29	CCc1ccc(S(=O)(=O)N2CCC3(CC2)Nc2cc(OC)ccc2-n2cccc23)cc1	-5
30	O=C(c1ccc(Cn2cnnn2)cc1)N1CCOC(c2ccc(Cl)cc2)C1 (stereo not drawn)	-28
31	CN(C)CCN1C(=O)CC2C1CCN2S(=O)(=O)c1cccs1 (stereo not drawn)	-5
32	CNC[C@H]1OCCCC[C@@H](C)Oc2ccc(NC(=O)Nc3ccc(OC)cc3)cc2C(=O)N([C@@H](C)CO)C[C@@H]1C	-13
33	O=C(C[C@@H]1C=C[C@@H](NC(=O)c2ccc3c(c2)OCO3)[C@@H](CO)O1)NC1Cc2ccccc2C1	9
34	Cc1nnc(CCNc2ccnc(C(=O)NC3CC3)c2)s1	-3
35	CN1C(=O)c2cc(NS(=O)(=O)c3cccc(F)c3)ccc2OC[C@@H]2O[C@H](CC(=O)N3CCc4ccccc4C3)CC[C@@H]21	-31
36	COc1ccc(-c2cc(-c3ccccc3)nc(N)c2C#N)cc1OC	19
37	CCn1cc2c3c(cccc31)CN(C(=O)c1ccc(Cl)nc1)CC2	42
38	CCOc1ccc(-c2cnc(C(C)(C)CN3CCOCC3)[nH]2)cc1	6
39	COc1ccc(-c2nc(NC3CCCCCC3)c3ccccc3n2)cc1	-52
40	Cn1c(=O)c(-c2nc(-c3ccccc3)no2)c(O)c2ccccc21	70
41	O=C(NCC1CCCO1)C12CC3CC(CC(C3)C1)C2 (stereo not drawn)	-30
42	COc1ccc(-c2cc(=O)c3c(OC)c(OC)c(OC)c(OC)c3o2)cc1	3&2
43	O=C(CC(c1ccccc1)c1ccc(Cl)cc1)N1CCC(CCO)CC1 (stereo not drawn)	10
44	O=C(Oc1ccccc1N1CCCCC1)c1ccco1	24
45	CN(C)S(=O)(=O)c1ccc2c(c1)cc(C(=O)NCCN1CCCC1)n2Cc1ccccc1	-46

4 entries drawn at random from the list so far:
item	Structure	Tgondii IFNg
27	Cc1csc(NC(=O)c2ccc(S(=O)(=O)NCc3cccnc3)cc2)n1	-37
4	Cc1cnc(N2CCCn3c(CN4CCCC4)nnc3C2)nc1	-29
38	CCOc1ccc(-c2cnc(C(C)(C)CN3CCOCC3)[nH]2)cc1	6
12	CC(C)(O)C#Cc1ccc([C@H]2[C@@H](CO)N3CCCCN(S(C)(=O)=O)C[C@H]23)cc1	8

Reprinted from the entries so far (6 entries):
item	Structure	Tgondii IFNg
31	CN(C)CCN1C(=O)CC2C1CCN2S(=O)(=O)c1cccs1 (stereo not drawn)	-5
32	CNC[C@H]1OCCCC[C@@H](C)Oc2ccc(NC(=O)Nc3ccc(OC)cc3)cc2C(=O)N([C@@H](C)CO)C[C@@H]1C	-13
33	O=C(C[C@@H]1C=C[C@@H](NC(=O)c2ccc3c(c2)OCO3)[C@@H](CO)O1)NC1Cc2ccccc2C1	9
34	Cc1nnc(CCNc2ccnc(C(=O)NC3CC3)c2)s1	-3
35	CN1C(=O)c2cc(NS(=O)(=O)c3cccc(F)c3)ccc2OC[C@@H]2O[C@H](CC(=O)N3CCc4ccccc4C3)CC[C@@H]21	-31
36	COc1ccc(-c2cc(-c3ccccc3)nc(N)c2C#N)cc1OC	19

Other structures:
item	Structure	Tgondii IFNg
46	O=C(NCCc1csc(-c2ccccc2)n1)C1CCN(C(=O)Cc2cccs2)CC1	16
47	Cc1cnc2c(C(=O)N3CCC(c4ccccc4C(=O)O)C3)cnn2c1 (stereo not drawn)	-7
48	O=C(CN1C(=O)COc2c(Cl)cccc21)Nc1ccc2nc[nH]c(=O)c2c1	-1
49	COc1ccc(-c2cn(CC[C@H]3CC[C@@H](NC(=O)c4cnccn4)[C@@H](CO)O3)nn2)cc1	48
50	COc1cc2c(cc1OC)C(Nc1ccc(I)cc1)=NC1(CCCC1)C2	-98*
51	COc1ccc(C(=O)N2CCc3nc(CNC(=O)C4CCC4)n(C)c3C2)cn1	44
52	O=C(c1cncc(Cl)c1)N1CCCC(c2ccn[nH]2)C1 (stereo not drawn)	7
53	CNC(=O)c1ccc(CNC(=O)Cc2c(C)[nH]c3c(C)ccc(C)c23)o1	5
54	CC1CCN(C(=S)NC(=O)c2cccs2)CC1	13
55	COc1ccc(S(=O)(=O)Nc2ccc3c(c2)CC(=O)N([C@H](C)CO)C[C@H](C)[C@H](CN(C)C(=O)Nc2c(C)noc2C)O3)cc1	-11
56	CN1CC2(CCC1=O)CCN(C(=O)c1ccncn1)CC2	116
57	Cc1ccccc1N=c1scc(C)n1-c1ccccc1C	-9
58	CO[C@@H]1CCN(Cc2c(C)noc2C)[C@H]2CN(Cc3cccnc3)C[C@@H]12	5
59	COc1ccc2c3c(n(C)c2c1)[C@H](CO)N(C(=O)Nc1cccc(F)c1)CC31CN(Cc2nccs2)C1	-24
60	CN1C(=O)N(CCc2ccccc2)C(=O)C12CCN(Cc1ccccc1-c1ccco1)CC2	-43
61	CCC(=O)N1C[C@H](C)[C@H](OC)CN(C)C(=O)c2ccc(NC(=O)CC(F)(F)F)cc2OC[C@H]1C	158
62	Fc1cnc(N2C[C@@H]3COC[C@]3(COCc3ccccn3)C2)nc1	-2
63	CC(C)CC(NS(=O)(=O)c1ccc2[nH]c(=O)ccc2c1)C(=O)N1CCOCC1 (stereo not drawn)	66
64	CC(C(=O)N(C)C)N(C)Cc1ccnn1-c1ccccc1 (stereo not drawn)	5
65	CC(=O)Nc1c(-c2ccccc2)oc2ccccc2c1=O	11
66	C=CCN1C(=O)CCC12CCC(NC(=O)c1ccncc1)CC2 (stereo not drawn)	-50
67	CC(C)CN1c2ccccc2[C@@H]2CN(C(=O)C3CC3)CC[C@H]21	54
68	Cc1ccc(S(=O)(=O)N2C[C@@H]3N[C@H](C2)C3c2ccc(-c3ccc(C(=O)N(C)C)cc3)cc2)cc1 (stereo partly drawn)	-31
69	FC(F)(F)c1cccc(C(c2nnnn2CCc2ccccc2)N2CCSCC2)c1 (stereo not drawn)	-5
70	Cc1ccc(S(=O)(=O)Nc2ccc3c(c2)CC(=O)N([C@H](C)CO)C[C@H](C)[C@@H](CN(C)S(=O)(=O)c2ccccc2)O3)cc1	8
71	O=C(C[C@H]1CC[C@@H](NC(=O)C2CCOCC2)[C@H](CO)O1)NCC1CCCCC1	-5
72	CS(=O)(=O)NCc1cn2c(n1)CN(C1CCOC1)CC2 (stereo not drawn)	-23
73	Cc1oc(-c2ccc(C(=O)NC(C)Cc3ccco3)cc2)nc1CN1CCN(c2ccccc2)CC1 (stereo not drawn)	-54
74	O=C(Nc1cccc2ncccc12)c1cc2ccccc2o1	17
75	Cn1cnnc1Sc1ccc(-c2nccn2-c2ccc(F)cc2)o1	21
76	COc1ccccc1S(=O)(=O)N[C@@H]1C=C[C@H](CC(=O)N2CCOCC2)O[C@H]1CO	5
77	CC(C)C(=O)N1CCCc2cc(-c3csc(N(C)C(=O)C4CCC4)n3)ccc21	-10
78	O=C(Nc1cccc(-n2cccn2)c1)C1CCCN1C/C=C/c1ccco1 (stereo not drawn)	8
79	C=CCn1c(=O)c(C(=O)Nc2ccc(F)c(F)c2)c(O)c2ccccc21	199
80	CSc1ccc(CNC(=O)c2nc(Nc3ccc(F)cc3)c3ccccc3n2)cc1	-29
81	COC1C2CCC1N(Cc1ccc3c(c1)OCO3)CCO2 (stereo not drawn)	-46
82	Cc1ccc(-c2ccnc(-c3ccc(F)c(CO)c3)n2)c(C)n1	13
83	COc1cccc(Nc2ncccc2C(=O)NC(C)c2cnn(C)c2C)c1 (stereo not drawn)	5
84	COc1ccc(CCNc2cc(C)nc(N)n2)cc1OC	-22
85	COc1cccc(OC)c1C(=O)N1CCN(S(=O)(=O)c2cc3c4c(c2)CCN4C(=O)CC3)CC1	-2
86	Cc1ccc(S(=O)(=O)N2CCC3(CC2)NCCN=C3NCc2ccc(Cl)cc2)cc1C	-35
87	O=C(C[C@H]1CC[C@@H]2[C@H](COC[C@H](O)CN2Cc2nccs2)O1)NCc1ccccc1Cl	27
88	CCn1ccnc1CN1CCCC(c2cncc(-c3cccc(Cl)c3)n2)C1 (stereo not drawn)	-110*
89	Cc1cc(C)cc(C(=O)N2CCC(N3CCOCC3)CC2C(=O)O)c1 (stereo not drawn)	-3
90	NC(=O)N1CCC2(CC1)CN(c1ccccn1)CCO2	4
91	CO[C@@H](CN(C)S(=O)(=O)c1cccc(Cl)c1)[C@H](C)CN(C(=O)Nc1ccccc1F)[C@@H](C)CO	64
92	CCC(C)NS(=O)(=O)c1cc2c3c(c1)CCN3C(=O)CC2 (stereo not drawn)	-17
93	CCN1CCCC1CN(Cc1ccccn1)Cc1n[nH]nc1-c1ccccc1 (stereo not drawn)	-31
94	CCCOc1ccc(Cl)c2c(=O)c3ccccc3sc12	47
95	Cc1cc(C)n(CCCN(C)C(=O)C2CCCN(CC(N)=O)C2)n1 (stereo not drawn)	0
96	Cc1cnc(NCc2ccc(C(=O)N3CCCC3)cc2)nc1N(C)C	-9
97	Cn1nc(C2CCN(C(=O)CCc3cccnc3)CC2)n(-c2ccccc2)c1=O	-23
98	COc1ccc(S(=O)(=O)N(C)C[C@H]2Oc3ccc(N(C)C)cc3CC(=O)N([C@@H](C)CO)C[C@H]2C)cc1	8
99	O=c1cc(-c2cccs2)oc2c1ccc1ccccc12	18
100	Cc1nc(C(C)C)cc(N(C)CC(C)N2CCOCC2)n1 (stereo not drawn)	0
101	CSc1ncc(C(=O)N2CCC(c3ncc(Cl)cc3S(C)(=O)=O)CC2)cn1	27
102	O=S(=O)(NCCc1csc(-c2ccc(F)cc2)n1)c1cccs1	-15
103	CCOc1ccc(-c2nc3c(s2)CN(S(=O)(=O)c2ccccc2)CC3)cc1	-49
104	CCOc1ccccc1NC(=O)NCC1CNCCOC1 (stereo not drawn)	-48
105	CCc1ccc(CNCC2COCc3c(C)nnn3C2)cc1 (stereo not drawn)	-49

New compounds follow.
item	Structure	Tgondii IFNg
106	CSc1ncc(CN2CCN(c3cc(C)cc(C)c3)C(=O)C2)cn1	-5
107	Cc1nc(C(C)C)sc1CNC(=O)c1cnc(N2CCOCC2)nc1	-12
108	c1csc(CN2CCCn3cnc(COCC4CC4)c3C2)c1	-51
109	CCCCOc1ccc(C(=O)NCCc2csc(-c3ccc(OC)cc3)n2)cc1	-110*
110	C[C@H](CO)N1C[C@H](C)[C@H](CN(C)C(=O)CN2CCOCC2)Oc2ncc(-c3ccncc3)cc2C1=O	?
111	Cc1ccc(-n2sc(=O)n(Cc3ccc(F)cc3)c2=O)cc1	-4&-8
112	Cn1c(=O)c2c(n(C)c1=O)=NC1(CCCCC1)N=2	3
113	COCC(=O)N1CCC2(CC1)CC1(CCN(CC(C)C)CC1)C(=O)N2C	-49
114	Cc1cc(NS(=O)(=O)c2ccc(NS(=O)(=O)c3ccc(F)cc3)cc2)no1	-31
115	CCOC(=O)c1c(C)oc(-c2ccc(Cl)cc2)c1S(=O)(=O)Nc1cccc(C)c1	-51
116	Cn1cccc1C(=O)NC[C@@H]1OC[C@@H]2CCN(S(C)(=O)=O)C[C@H]21	18
117	CC(=O)Nc1ccc(Cl)c(C(=O)NCCCOc2ccccc2)c1	150
118	OC(c1ccccc1)(c1ccccc1)C12CC[N+](CCOCc3ccccc3)(CC1)CC2	12

Source: PubChem (Broad Institute)
